# Assay outcomes: PubChem BioAssay, Fisher Drug Discovery Resource Center
# NPYLR7 ag – agonists of mosquito NPYLR7 receptor, primary screen, cell-based, Aedes aegypti, calcium fluorescence, mosquito biting behavior. HEK293T NPYLR7/Galpha15, GCaMP6s calcium fluorescence. AID 1259423, 2018. 270,000 compounds, 0.15% hits. Aedes aegypti neuropeptide Y-like receptor 7 (NPYLR7). activation, % at 10 µM; in the data active = activation above about 40%;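 also: 0% = vehicle and 100% = reference agonist at the receptor; some compounds past the cut are filed as inactive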
# NPYLR7 ag max-min – second read-out of NPYLR7 ag, no call of its own (marks repeat the call); activation, %; measured here: Max-Min RFU normalised activation; some inactives read as strong as hits;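 span of the calcium signal over five minutes; 0% = vehicle and 100% = native peptide agonist; compound fluorescence can raise it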
# * marks the source's active call; other numbers are inactive results; & = joins results of further samples. These rows are one share of the data; rates above refer to the full screens.
SMILES	NPYLR7 ag	NPYLR7 ag max-min
O=C(Cn1nc(-c2ccc(F)c(F)c2)c2ccccc2c1=O)NC1CC1	1	0
CNC(=O)CN1CCC(NC(=O)N2CCSCC2)CC1	8	5
COc1cc(C(=O)N2CCc3c(ncnc3N(C)C)C2)cc(OC)c1OC	6	4
Cc1sc2nc(-c3cccs3)nc(-n3ccnc3)c2c1C	4	5
N#Cc1ccccc1CSc1nnnn1CC(F)(F)F	-5	-4
Cc1ccccc1-c1nc2scc(CCNS(=O)(=O)c3ccc(F)cc3F)n2n1	-5	-4
CCc1cc(C(=O)Nc2ccc(OC)cc2OC)sc1C	3	3
O=C(Nc1ccc(N2CCN(C(=O)c3ccc(-c4cccc(Cl)c4)s3)CC2)nc1)c1ccco1	2	-5
COc1cccc(CC(C2CCN(C(=O)c3cccnc3OC)CC2)N(C)C(=O)c2ccn(C)n2)c1 (stereo unspecified)	14	6
FC(F)(F)COCCCn1nnc(-c2ccsc2)n1	8	4
CC(C)Oc1ccc(C(=O)Nc2ccccc2N2CCOCC2)cn1	-1	-3
CC(=O)NCC(=O)N1CCCC(CCc2c(F)cccc2F)C1 (stereo unspecified)	1	1
CCN(CC)S(=O)(=O)c1ccc(NN=C2C=C(C)CC(C)(C)C2)nc1	0	0
c1cc(C2NCCc3[nH]cnc32)ccn1 (stereo unspecified)	-10	-16
CCN(Cc1ccc(CO)o1)CC1CCOCC1	2	0
C#CCNC(=O)c1ccc(Br)cc1F	0	-1
COc1ccc(CSc2nnc(-c3cccc(C)c3)n2-c2ccc(C)cc2)cc1	-7	1
O=C(/C=C/c1cccs1)N(CCCn1ccnc1)c1nc2c(Cl)cccc2s1	-9	-15
CC1=C(C(=O)N2CCc3ccc(NC(=O)C4CCCO4)cc3C2)OCCO1 (stereo unspecified)	0&-1	1&-6
O=C(Nc1nncs1)c1cccc(NC(=O)c2ccc(Br)o2)c1	-7	-6
CC(=O)Nc1ccc(NC(=O)c2cc(C)ccc2N2CCCC2)cc1	7	2
C=CCn1c(=O)c(C(=O)Nc2nc3ccccc3s2)c(O)c2ccccc21	4	2
CCCNC(=O)c1nnc2n(c1=O)CCN2c1ccccc1	-2	-2
CCOc1ccc2nc(CN3CCC(n4nccc4NC(C)=O)CC3)ccc2c1	18	4
O=C(Nc1ccc2c(c1)OCO2)C1=CN2CCS(=O)(=O)N=C2C=C1	1	1

# The list goes on, starting with the last two of the part before.
SMILES	NPYLR7 ag	NPYLR7 ag max-min
CCOc1ccc2nc(CN3CCC(n4nccc4NC(C)=O)CC3)ccc2c1	18	4
O=C(Nc1ccc2c(c1)OCO2)C1=CN2CCS(=O)(=O)N=C2C=C1	1	1
OCCNc1nc2nonc2nc1Nc1ccccc1	-3	-8
O=C(c1ccc(CSc2nnc(-c3ccccc3Cl)n2Cc2ccccc2)cc1)N1CCCC1	-12	-5
Cc1nn(-c2ccc(Nc3ccc(NC(=O)Nc4ccc(F)cc4)cc3)nn2)c(C)c1C	-2	-7
Cc1nn(C2CCS(=O)(=O)C2)c(N2CCCCC2)c1C=NNC(=O)C1CC1 (stereo unspecified)	-1	56
O=c1n(CN2CCc3ccccc3C2)nnn1-c1cccs1	5	5
Cn1c(=O)[nH]c(=O)c2[nH]c(CN3CCN(c4ccccc4F)CC3)nc21	0	15
CCOc1cn2c(cc1=O)C(=O)N(CCNC(=O)c1ccc(C)cc1)CC2	3	-1
CCN(CC)C(=O)Oc1ccc2c(ccn2Cc2cc(C)cc(C)c2)c1NC(=O)C(C)Cl (stereo unspecified)	-2	-8
CCc1nn(-c2ccccc2)c(Oc2ccc(OC)cc2)c1CN(CC(O)CN1CCOCC1)C1CC1 (stereo unspecified)	-6	2
CC(C)Sc1ccc(C(C)NC(=O)N(C)Cc2cnn(C)c2)cc1 (stereo unspecified)	13	11
O=C(c1cc(-c2cccs2)nn1-c1ccccc1Cl)N1CCN(Cc2ccccc2)CC1	-5	7
COc1cc2c(cc1OC)-c1cc(=Nc3c(C)cc(C)cc3C)n(C)c(=O)n1CC2	5	-32
CNC(=O)[C@H]1CN(C(=O)NCc2ccccc2)[C@]2(C)C(=O)N(CCO)c3ccccc3[C@H]12	19	29
CCOC(=O)C(=O)Nc1c(OC(=O)N(CC)CC)ccc2c1ccn2Cc1cc(C)cc(C)c1	-4	-15
CC(NC(=O)COC(=O)C1CC1)C12CC3CC(CC(C3)C1)C2 (stereo unspecified)	-1	-2
CC1CCC2(CC1)OCC(C(=O)NC1CC1)N2C(=O)c1ccc(C(F)(F)F)cc1 (stereo unspecified)	4	4
COc1ccc(-c2cn3c(C(=O)Nc4cc(C)on4)csc3n2)cc1	1	-2
CCC(NC(=O)c1ccc(-n2cnnc2)cc1Cl)c1ncccc1C (stereo unspecified)	-5	-6
CCN(Cc1ccncc1)C(=O)c1cc(C)n(C)n1	17	3
Cc1ccc(Cn2cc(C(=O)NNC(=O)Nc3ccc(F)cc3)ccc2=O)cc1	2	-1
CCOC(=O)C1=C(C)NC2=C(C(=O)CC(C)(C)C2)C1c1ccc(OC)cc1 (stereo unspecified)	-2	-5
O=C1NC2(CCCC2)C(=O)N1CCCC(=O)N1CCc2ccccc21	6	4
Cc1ccc2nc(-c3ccc(C)c(NC(=O)c4cc([N+](=O)[O-])ccc4Cl)c3)oc2c1	-16	-14
COc1ccc(NS(C)(=O)=O)cc1NS(=O)(=O)c1ccc(F)cc1	7	12
CC1c2cccn2CCN1C(=O)c1nc(N)n[nH]1 (stereo unspecified)	-1	-4
CCN(Cc1ncccc1C(=O)O)C(C)C	-1	-4
CC(NC(=O)OC(C)(C)C)c1noc(CC2C=CCC2)n1 (stereo unspecified)	8	6
CN(C)CCCN(C)C(=O)CN1C(=O)C(c2ccccc2)NC(=O)c2ccccc21 (stereo unspecified)	-1	-1
Cc1cc(C)n2ncc(CN3CC[C@@H](c4ccc(F)cc4)[C@H](O)C3)c2n1	6	4
CC(C)(C)c1ccc(CC(=O)N2CCC2(C)C(=O)NS(=O)(=O)c2ccccc2)cc1 (stereo unspecified)	2	2
COc1cc(C2NC(=O)C(C)S2)cc(OC)c1OC (stereo unspecified)	1	1
COc1cc(OC)cc(C2SCCN2C(=O)Nc2c(C)cccc2C)c1 (stereo unspecified)	-3	8
CCCCNC(=O)N1CCN(C(=O)CN2CCCC2)CC1	7	5
CCOCCOc1nc(-c2ccc(C(F)(F)F)cc2)n(-c2ccc(NC(=O)C(CC)c3ccccc3)cc2)n1 (stereo unspecified)	-3	11
CCC1C(=O)NCCN1C(=O)Nc1cccc(-c2nccs2)c1 (stereo unspecified)	5	3
O=C(c1ccccc1)N1CCC(NCc2cnn(-c3cccc(F)c3)c2)CC1	-4	-4
O=C1N(CCc2ccccc2)C[C@@H]2C[C@@H](c3cnc(-c4ccccc4)s3)N3CCC[C@@]123	8	3
COc1ccc(C2=NN(C(=O)CN3CCC4(CC3)OCCO4)C(c3ccccc3C)C2)cc1 (stereo unspecified)	-8	-2
CCC(=O)Nc1cccc(C(=O)NCCN2CCc3ccccc3C2)c1	20	6
O=C(Cc1cccs1)NN=Cc1c(O)ccc2ccccc12	12	8
Cc1ccc(C(=O)N2CCOc3ccc(CN4C[C@@H](C)O[C@@H](C)C4)cc3C2)cc1N1CCNC1=O	12	3
O=C(NCCn1ncc2c(=O)n(Cc3ccc([N+](=O)[O-])cc3)cnc21)c1ccc(F)c(F)c1	0	-7
CC(C)Cc1nc(-c2ccc3c(c2)OCO3)n[nH]1	-5	-13
CC(=O)c1cccc(OCC(=O)N(CC(C)C)C2CCN(C)CC2)c1	0	-2
Cc1cc(NN=Cc2ccccn2)nc2ccccc12	6	10
Cc1nc2c(NS(=O)(=O)NCc3ccccc3)cccn2n1	4	2
CNC(=S)N/N=C\c1cccc(Oc2ccc(C(F)(F)F)cc2[N+](=O)[O-])c1	0	-5
Clc1ccc2nc(N3CCc4ccccc4C3)sc2c1	5	1
Cc1oc(-c2ccco2)nc1COc1cccc2ccc(N3CCOCC3)nc12	1	-3
O=C(CC(c1ccc(OCc2ccccc2)cc1)c1c[nH]c2ccccc12)NCCN1CCCC1 (stereo unspecified)	5	9

# Carrying on.
SMILES	NPYLR7 ag	NPYLR7 ag max-min
COCCCN(Cc1cccn1Cc1cccc(F)c1)CC(O)COc1ccc(OC)cc1 (stereo unspecified)	-5	2
Cc1cccc(C)c1Nc1c(C2CCCCC2)nc2ncccn12	9	18
COc1ccc(OC)c(S(=O)(=O)N2CCC(Cc3ccc(C(F)(F)F)cc3)CC2)c1	1	-1
CN(C(=O)CSc1nnc(C2CC2)n1Cc1ccccc1)C1CCCCC1	4	1
CC(C)OC(=O)C(C(=O)C(F)(F)F)c1cc(NS(=O)(=O)c2ccc(Cl)cc2)ccc1O (stereo unspecified)	44*	43*
COCCN(CC(=O)Nc1nc(CC(=O)N2CCN(c3cccc(C(F)(F)F)c3)CC2)cs1)C(=O)c1ccc(OC)cc1	-4	9
CCOCCOC(=O)CSc1ncnc2sc(C)c(C)c12	-2	-4
COc1ccc(CCN2CCC(CN(C)CC3=Cc4cc(OC)ccc4OC3)CC2)cc1	12	3
CC1=C(C(=O)OCc2ccccc2)C(c2ccc(F)cc2)C(C#N)C(=N)O1 (stereo unspecified)	-5	-11
COC(=O)c1ccc(C(=O)N2CCC(c3nc(-c4ccc(Cl)cc4)no3)CC2)cc1	0	-5
Cc1cc(CSc2ccccc2C(=O)NC2CCC(C)CC2)on1 (stereo unspecified)	9	5
CCOC(=O)c1cc(-c2cccc(NC(=O)c3ccno3)c2)n(-c2cccc(C)c2)n1	18	10
O=C(NCCCn1nnc2ccccc21)c1cn(CC2CCCO2)nn1 (stereo unspecified)	6	3
Cc1ccccc1-n1cc(Cn2ccnc2-c2ccccc2C(=O)O)cn1	13	3
CCCOc1cccn2c(N(C)C(=O)CCC3CCCC3)c(C)nc12	-18	-18
CC(C)(C)n1nc2nc(S(C)(=O)=O)nc(-c3ccc(F)cc3F)c2c1N	14	8

# At a glance, some entries already given:
SMILES	NPYLR7 ag	NPYLR7 ag max-min
COCCCN(Cc1cccn1Cc1cccc(F)c1)CC(O)COc1ccc(OC)cc1 (stereo unspecified)	-5	2
Cc1cccc(C)c1Nc1c(C2CCCCC2)nc2ncccn12	9	18
COc1ccc(OC)c(S(=O)(=O)N2CCC(Cc3ccc(C(F)(F)F)cc3)CC2)c1	1	-1
CN(C(=O)CSc1nnc(C2CC2)n1Cc1ccccc1)C1CCCCC1	4	1
CC(C)OC(=O)C(C(=O)C(F)(F)F)c1cc(NS(=O)(=O)c2ccc(Cl)cc2)ccc1O (stereo unspecified)	44*	43*
COCCN(CC(=O)Nc1nc(CC(=O)N2CCN(c3cccc(C(F)(F)F)c3)CC2)cs1)C(=O)c1ccc(OC)cc1	-4	9
CCOCCOC(=O)CSc1ncnc2sc(C)c(C)c12	-2	-4
